LASV entry inh – qHTS for Inhibitors of binding or entry into cells for Lassa Virus; Lassa virus pseudotype entry inhibition, cell reporter; control for the full effect not named in the record; Potency, µM (titrated, usually from 37.9 µM), for inactives: top-dose activity change, negative = inhibition, usual class: inhibitors; actives 1.2% (n = 300,000); active means well fitted inhibition curve with a large enough effect; inconclusive means small, poorly fitted or top-dose-only effect, or effect the other way; inactive means flat fitted curve, though single readings scatter; tested in HEK293 cells; further: on the % scale 0 is the no-effect control and ±100 the full control effect; nearly all actives have a fitted effect of over 50% in size; luciferase read-out
MARV entry inh – qHTS for inhibitors of binding or entry into cells for Marburg Virus | Potency, µM (doses to about 37.8 µM), for the others: at the top dose activity change, negative = inhibition, usual class: inhibitors | Marburg virus pseudotyped entry inhibition, cell reporter; control for the full effect not named in the record; about a third of the inactives were read at about 46 µM | actives 1.8% (n = 300,000) | AID 540276, 2011; active = well fitted inhibition curve with a large enough effect; inconclusive = small, poorly fitted or top-dose-only effect, or effect the other way; inactive = flat fitted curve, though single readings scatter; tested in HEK293 cells; about a fifth of its hits are not listed in these tables; further: on the % scale 0 is the no-effect control and ±100 the full control effect; luciferase read-out
Cruzain noTriton – qHTS Assay for Promiscuous and Specific Inhibitors of Cruzain (without detergent). Cruzipain (Trypanosoma cruzi), P25779. purified cruzain, Z-FR-AMC fluorescence, no detergent. Potency, µM, for inactives: max response, negative = inhibition, hits mostly inhibitors. actives 2.3% (n = 200,000). AID 1476, 2009;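 further: plate controls were enzyme without inhibitor for no effect and buffer without enzyme for full effect; nearly all actives have a fitted effect of over 40% in size; top concentration of the series not given in the record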
Target sequence (P25779 123-467 limits assumed): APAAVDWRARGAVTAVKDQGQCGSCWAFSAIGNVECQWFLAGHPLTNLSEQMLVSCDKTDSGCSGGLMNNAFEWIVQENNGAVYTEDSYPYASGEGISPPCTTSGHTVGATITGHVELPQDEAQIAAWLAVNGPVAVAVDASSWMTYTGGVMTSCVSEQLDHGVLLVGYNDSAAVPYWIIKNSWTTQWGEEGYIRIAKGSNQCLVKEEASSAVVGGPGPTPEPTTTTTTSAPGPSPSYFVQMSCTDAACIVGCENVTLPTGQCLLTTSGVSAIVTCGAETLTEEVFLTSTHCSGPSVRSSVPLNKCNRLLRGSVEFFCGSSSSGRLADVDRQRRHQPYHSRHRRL
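Purified cruzain at 1.5 nM, pre-incubated 15 min with compound at room temperature in 100 mM sodium acetate pH 5.5, 5 mM DTT, 0.00005% Triton X-100. Reaction started with 2 uM Z-FR-AMC; AMC fluorescence increase over 60 s gives rate.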
SARS PLpro yeast – qHTS of Yeast-based Assay for SARS-CoV PLP | S. cerevisiae expressing SARS-CoV PLpro, growth rescue; control for the full effect not named in the record | Potency, µM (series often up to 32.9 µM), inactives show top-dose activity, positive = growth rescue | actives 0.19% (n = 330,000) | AID 485353, 2010; active means well fitted rising curve with a large enough effect; inconclusive means small, poorly fitted or top-dose-only effect; inactive means no such curve, though single readings can be large or run the other way; further: 0% is about no effect; nearly all actives have a fitted effect of over 55% in size; growth read by luminescence after 48 h
NS1 function inh – qHTS Assay for Inhibitors of Influenza NS1 Protein Function | AID 2326, 2010 | S. cerevisiae slowed by influenza A NS1, growth recovery by OD600 | Potency, µM (series often up to 46.1 µM), for inactives: top-dose activity, positive = more growth | actives 0.4% (n = 270,000); active means well fitted rising curve with a large enough effect; inconclusive means small, poorly fitted or top-dose-only effect; inactive means no such curve, though single readings can be large or run the other way; further: nearly all actives have a fitted effect of over 50% in size
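A cell-based growth assay was used: compounds that relieve NS1-induced slow growth of budding yeast raise OD600. Assay medium was yeast nitrogen base with ammonium sulphate and -URA supplement, pH 6.0, with 2% galactose.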
StopGo reporter – High Throughput Screening for Foot and Mouth Disease Virus Antivirals; human cells with a luciferase reporter of 2A StopGo recoding; control for the full effect not named in the record; Potency, µM (series often up to 57.9 µM), inactives show at the top dose signal change, negative = less light; actives 1.2% (n = 410,000); active = well fitted falling curve with a large enough effect; inconclusive = small, poorly fitted or top-dose-only effect; inactive = no such curve, though single readings can be large or run the other way; tested in HEK293T cells; further: on the % scale 0 is the no-effect control and ±100 the full control effect; nearly all actives have a fitted effect of over 45% in size; luciferase light after 4 h
Cruzain inh Det – qHTS Assay for Promiscuous and Specific Inhibitors of Cruzain (with detergent); Cruzipain (Trypanosoma cruzi), P25779; purified cruzain, Z-FR-AMC fluorescence, 0.01% Triton; Potency, µM, for the others: max response, negative = inhibition, most hits filed as inhibitors; actives 0.43% (n = 200,000); AID 1478, 2009;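 further: plate controls were neutral wells for no effect and buffer without enzyme for full effect; nearly all actives have a fitted effect of over 40% in size; top concentration of the series not given in the record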
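Enzyme 1.5 nM, Z-FR-AMC 2 uM, NaOAc 100 mM pH 5.5, DTT 5 mM, Triton X-100 0.01%; 15 min RT compound preincubation; kinetic ex360/em450, 60 s delta.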
RE007 growth inh – qHTS Assay for Inhibitors of the HIV-1 protein Vpr | S. pombe RE007 Vpr strain, BacTiter-Glo ATP luminescence, 24 h; control for the full effect not named in the record | Potency, µM (highest dose often 92.2 µM), inactives show at the highest dose activity change, negative = less growth | actives 0.21% (n = 360,000) | AID 651644, 2012; active = well fitted falling curve with a large enough effect; inconclusive = small, poorly fitted or top-dose-only effect; inactive = no such curve, though single readings can be large or run the other way;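 further: on the % scale 0 is the no-effect control and ±100 the full control effect; nearly all actives have a fitted effect of over 50% in size; the assay follows cell death caused by Vpr and the record does not say whether a fall means rescue or toxicity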
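Fission yeast RE007 carrying one integrated HIV-1 vpr copy, seeded at OD 0.01 in PMG+AL medium with 23 nL pinned compound. Grown 24 h at 30 degrees; viability read by BacTiter-Glo luminescence after 5 min.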
* hit, by the source's call; ? = inconclusive; . = not tested or not shown; & = joins results of further samples; [ ] = remark or other dose. Unless noted, the call rests on the fitted dose curve; in most records, active means well fitted curve in the direction sought with a large enough effect; inconclusive means small, poorly fitted or top-dose-only effect, or another doubt; inactive means no such curve, though single readings can be large; an effect the other way counts as inactive or inconclusive. Potency means the concentration at half of the fitted maximal effect.

Compound	LASV entry inh	MARV entry inh	Cruzain noTriton	SARS PLpro yeast	NS1 function inh	StopGo reporter	Cruzain inh Det	RE007 growth inh
Cc1ccc(C(=O)NCC2CCCO2)cc1N1CCCC1=O (stereo not given)	0.9%	9.5%	2.3%	3.7%	-3.0%	-9.9%	3.8%	-7.1%
O=C(O)c1ccc(-n2c(=O)c3ccccc3c3ccccc3c2=O)cc1	3.7%[46.1 µM]	-4.3%[46.1 µM]	.	-0.2%	8.3%	35.5µM*	.	10.5%
O=C(CCCCn1c(=O)c2ccccc2n(Cc2ccccc2F)c1=O)NCc1ccccc1Cl	-6.0%[46.1 µM]	?	2.0%	.	.	-18.5%	-1.4%	.
CC(C)C(=O)NC(=S)Nc1ccc(S(=O)(=O)N(C)C)cc1	12.6%	?	7.7%	6.1%	2.6%	-4.1%	-3.9%	4.5%
CCCn1c(N2CCN(CC(=O)Nc3ccc4c(c3)OCCO4)CC2)nc2ccccc21	-0.6%	2.1%&2.1%[46.1 µM]	-3.7%	0.4%	-18.1%	?	3.7%	-3.4%
COc1ccc(OC)c(C(c2c(O)c3ccccc3oc2=O)c2c(C)n(C)n(-c3ccccc3)c2=O)c1 (stereo not given)	22.6%[46.1 µM]	3.4%&3.4%[46.1 µM]	2.1%	-1.5%	.	4.8%&13.4%	-0.6%	-0.3%
CCN(CC(=O)Nc1ccc(OC)cc1)C(=O)c1ccccc1Sc1ccccc1C#N	-17.9%	?	.	-1.6%	.	-5.5%	.	3.9%
CC1(c2ccccc2)NC(=O)N(CC(=O)Nc2cc(S(=O)(=O)N3CCOCC3)ccc2Cl)C1=O (stereo not given)	18.8%[46.1 µM]	13.1%[46.1 µM]	.	-0.9%	.	-11.8%	.	12.5%
Cc1nc2ccccc2cc1C(=O)N(C)Cc1ccccc1	-2.5%	7.1%[46.1 µM]	.	-2.4%	7.9%	3.8%	.	-2.8%
Cc1cc(C)n(C(C)CC(=O)N2CCc3ccccc32)n1 (stereo not given)	.	.	.	2.9%	-5.2%	-4.6%	.	-7.1%
O=S(=O)(Nc1nc2c(s1)CCCC2)c1ccc(F)cc1	24.1%	2.5%	-11.0%	-7.9%	-0.4%	156.4%[activator]	-2.9%	-11.8%
O=C(Nc1ccccc1)N1N=CCC1c1ccccc1 (stereo not given)	-13.6%	0.0%[46.1 µM]	.	-0.4%	2.7%	-14.1%	.	8.2%
CCOC(=O)C1CCCN(C(=O)c2ccc3nc(-c4cccc(OC)c4)oc3c2)C1 (stereo not given)	?	?	.	-0.3%	-52.6%	9.1%	.	-9.1%
CCc1ccccc1N(CC(=O)NC1CCCCC1)C(=O)CCC(=O)Nc1ccccn1	-25.4%[46.1 µM]	-23.6%[46.1 µM]	.	1.9%	-6.6%	8.8%	.	-0.6%
Cc1ccc(S(=O)(=O)c2nnn3c2nc(N2CCN(c4ccc(F)cc4)CC2)c2cc(Cl)ccc23)cc1C	.	-16.5%[46.1 µM]	2.2%	.	.	-5.2%	0.4%	.
CC(/C=N/NC(=O)c1cc(-c2ccc(C)o2)[nH]n1)=C\c1ccccc1	.	-4.2%	3.2%	5.2%	13.9%	-9.3%	-1.2%	17.1%
CC(C)(CNC(=O)Cc1ccc(Cl)cc1Cl)N1CCOCC1	12.5%[46.1 µM]	1.4%[46.1 µM]	.	-12.1%	13.8%	9.3%	.	-5.8%
CNc1cc(N2CCN(S(=O)(=O)N(C)C)CC2)ccc1[N+](=O)[O-]	15.9%	0.4%[46.1 µM]	.	0.5%	.	-9.0%	.	-3.6%
Cc1nn(Cc2cccc(Oc3ccccc3)c2)c(C)c1NC(=O)NC12CC3CC(CC(C3)C1)C2	-23.9%	9.9%	1.7%	-2.3%	-3.7%	?	-4.3%	-5.5%
O=C(c1ccc(F)cc1)N1CCC(c2nc(-c3ccc(S(=O)(=O)N4CCCC4)cc3)no2)CC1	10.4%[46.1 µM]	3.6%[46.1 µM]	-4.8%	.	.	?	-1.1%	.
COc1ccc(-c2cc(-c3ccc(Cl)cc3)c(C#N)c(SCC(=O)O)n2)cc1	.	.	.	10.2%	22.5%	41.7%[activator]	.	3.0%
CCOC(=O)c1c(-c2ccc(-c3ccccc3)cc2)csc1NC(=O)CNCCN(C)C	?	?	.	-4.6%	5.5%	-29.2%	.	2.8%
Cc1nc2ccccc2c2oc(C(=O)N3CCc4ccccc4C3)cc12	.	.	?	-11.7%	-153.9%	?	-4.6%	3.6%
CCN(C(=O)c1cc2ccccc2oc1=O)c1ccccc1	?	13.9%	-12.8%	-1.9%	-9.4%	39.0%[activator]	4.2%	14.9%
O=C(CCc1cn2ccccc2n1)NC1CCCc2c1cnn2-c1ccccc1F (stereo not given)	.	.	.	-4.6%	-5.7%	-9.0%	.	-5.4%
CCc1ccc(-c2cnc3ccccc3n2)cc1NC(=O)CNC(=O)c1ccccc1	.	.	.	0.7%	-6.7%	55.7%[activator]	.	5.9%
CCCCN(C(=O)c1ccc([N+](=O)[O-])o1)c1c(N)n(CC(C)C)c(=O)[nH]c1=O	18.6%	-0.6%	.	-0.2%	.	-13.5%	.	-7.9%
COc1cccc(C(C)NC(=O)C2CCCO2)c1 (stereo not given)	?	5.6%	.	-7.1%	0.8%	-18.7%	.	-10.3%
COc1cccc(O)c1CN1CCCC(C(=O)c2sccc2C)C1 (stereo not given)	?	?	.	-0.7%	5.0%	0.0%	.	-1.0%
NC(=O)CC(NC(=O)Cc1cccc2ccccc12)c1ccc(NCCOc2ccccc2)c([N+](=O)[O-])c1 (stereo not given)	.	.	.	-2.7%	4.4%	0.0%	.	-13.8%
N#Cc1ccccc1COC(=O)c1cc(=O)c2ccccc2o1	17.1%[46.1 µM]	2.8%[46.1 µM]	.	-5.4%	4.4%	5.4%	.	2.2%
C/C(N)=C(/C#N)C(=O)COC(=O)CSc1ccccc1	-0.3%	25.8%	6.3%	1.5%	-6.7%	10.7%	0.6%	6.3%
O=C(CNS(=O)(=O)c1ccc(Cl)cc1)N/N=C/c1ccco1	-20.6%	?	.	-1.7%	0.1%	8.0%	.	-0.3%
O=C(O)CSC1CC(=O)N(c2ccc(Cl)c(Cl)c2)C1=O (stereo not given)	8.1%	?	1.9%	-36.4%	-23.5%	-7.1%	-4.1%	11.2µM*
O=C(CCN1C(=O)[C@H]2CC=CC[C@H]2C1=O)NCc1nc(-c2ccc(Cl)cc2)no1	.	.	.	15.0%	10.1%	-23.4%	.	-2.9%
Cc1cccnc1NC(=O)COc1ccc2c(c1)CCC2	-15.5%	?	.	-9.4%	.	4.2%	.	-0.3%
OCC(CBr)(CBr)CBr	.	.	5.1%	-0.2%	.	-15.7%	5.0%	8.5%
O=C(COc1cccc(Br)c1)N/N=C/C(=O)c1ccccc1	4.9%[46.1 µM]	?	.	-2.6%	.	20.5%	.	-7.4%
Cc1ccc(C(C(=O)NCC2CCCO2)N(Cc2ccccc2)C(=O)c2ccc(-c3ccccc3)[nH]2)o1 (stereo not given)	?	?	?	-34.5%	27.2%	-13.5%	-9.4%	-3.4%
COc1cc(NC(=O)CCn2c(=O)oc3ccccc32)cc(OC)c1OC	1.3%&7.8%[46.1 µM]	?	12.5%	1.1%	9.1%	-17.6%&-18.6%	-5.2%	-25.2%
CCC(=O)N1c2ccccc2CC1C(=O)N1CCN(c2ccccc2F)CC1 (stereo not given)	15.3%[46.1 µM]	.	-1.7%	.	.	-22.4%	-0.9%	.
COc1ccc(S(=O)(=O)N2CCSC2c2ccc(N)cc2)cc1 (stereo not given)	-2.7%	18.8%	-2.4%	-2.2%	?	-8.7%	-2.2%	5.0%
CCNS(=O)(=O)c1ccc(NC(=O)Nc2cc(C)ccc2OC)cc1	.	.	.	-0.1%	-4.0%	5.1%	.	-2.3%
CS(=O)(=O)N(CCC#N)Cc1ccco1	13.4%	3.4%[46.1 µM]	.	1.5%	.	-10.0%	.	-2.9%
CN(C)S(=O)(=O)c1ccc(N2CCN(S(=O)(=O)c3ccc(F)cc3)CC2)c(Cl)c1	?	?	-5.7%	-2.9%	-36.5%	?	-1.4%	4.6%
COc1ccc(OC)c(NC(=O)c2oc(=O)c3ccccc3c2-c2ccccc2)c1	-26.0%[46.1 µM]	.	-9.6%	.	.	0.0%	0.9%	.
O=C1CC(c2ccccc2)Cc2nc3ncnn3cc21 (stereo not given)	7.7%	-10.6%	-4.7%	4.6%	4.7%	.	5.5%	6.9%
O=C(CSCc1nc2cccnc2n1C1CCCCC1)NCc1cccc(Br)c1	-20.3%[46.1 µM]	.	4.5%	.	.	-20.2%	-6.6%	.
O=C(CNC(=O)Cc1ccccc1)NCC(=O)N1CCN(C(c2ccccc2)c2ccccc2)CC1	.	.	.	2.2%	-21.6%	-4.7%	.	24.6%
Cc1ccc(S(=O)(=O)Nc2cccc(C(=O)NCC(C)(C)N3CCOCC3)c2)cc1F	-27.9%	6.7%	.	-5.0%	.	1.1%	.	-0.2%
COc1ccc2nc(SCC(=O)Nc3ccccc3C#N)[nH]c2c1	22.4%	?	-18.7%	-0.6%	-7.8%	-24.9%	-4.4%	23.5%
Oc1ccccc1/C=N/NC(=S)NCCc1ccccc1	0.5%[46.1 µM]	?	.	1.7%	-7.3%	12.3%	.	6.7%

Compounds as they come; overall some 4.7% were active at least once.
